Screening results as filed in PubChem BioAssay.
RN4220 kill – S. aureus RN4220 growth inhibition; OD600, 16 h; inhibition, % (no concentration beside the values); actives 0.33% (n = 330,000); AID 1259311;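 active = z-score of -3 or lower and OD600 up to 0.18 on both plates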;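 also: plate controls were untreated cells for no effect and reference antibiotic for full effect; stock transfer was 100 nL into about 80 µL; one replicate is shown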
Autofluor counter – flagged as autofluorescent in microsphere protease counterscreen; compound autofluorescence counterscreen, microsphere flow cytometry; active compounds read high; fluorescence intensity (concentration not given with the values); actives 3.1% (n = 360,000);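 active = at least 3 SD above the mean of all compounds, about 16000 in these data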;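 also: 100 nL of 1 mM stock went into each well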
PrP 5UTR inh – suppresses PrP 5' UTR mRNA reporter expression; inhibition, % (no concentration beside the values); cell-based PrP 5' UTR mRNA reporter, plate reader; actives 0.35% (n = 340,000);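 active = every replicate at 50% or more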;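 also: 0 = median of the neutral control wells; tested in H4 reporter cells; numbers are from one replicate; inactives centre near -14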
BJeLR lethal – BJeLR cell viability loss; BJeLR (HRASV12) viability, CellTiter-Glo ATP luminescence, 48 h; reference of the scale not given here; inhibition, % (test concentration not listed); actives 0.17% (n = 300,000); AID 1554;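 active = replicate mean above 50%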;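 also: 50 nL library stock added to about 25 µL; numbers are from one replicate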
ugtP null kill – kills S. aureus RN4220 lacking UgtP | S. aureus RN4220 ugtP deletion, OD600 growth, 16 h; some inactives read as strong as hits | growth inhibition, % (no concentration beside the values) | actives 0.54% (n = 330,000) | AID 1259309;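 active = z-score under -3 and OD600 up to 0.15 on both plates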;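 also: plate controls were untreated wells for no effect and antibiotic for full effect; wells of about 80 µL received 100 nL stock; the first replicate is given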
Mtb hypoxia inh – reduces hypoxia-regulated biosensor signal in M. tuberculosis; M. tuberculosis hypoxia-regulated fluorescent reporter, fluorescence; actives 0.1% (n = 300,000); fluorescence inhibition, % (concentration not given with the values);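 active = 35 to 45% if threefold the growth effect, above 45% if 1.5-fold the growth effect; inactive = the rest, general growth blockers included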;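 also: wells of about 50 µL received 100 nL stock; 0% = vehicle wells and 100% = reference inhibitor wells; whole bacteria with a GFP reporter of the hypoxia response; strong numbers were not always called active; many hits fall short of the cut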
Mtb hypoxia inh growth – second read-out of Mtb hypoxia inh, no call of its own (marks repeat the call); growth inhibition, %; measured here: M. tuberculosis growth (absorbance);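 0% = vehicle and 100% = reference antibiotic; read after six days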
* marks the source's active call; other numbers are inactive results; · = no result given.

SMILES | RN4220 kill | Autofluor counter | PrP 5UTR inh | BJeLR lethal | ugtP null kill | Mtb hypoxia inh | Mtb hypoxia inh growth
Cc1onc(-c2c(Cl)cccc2Cl)c1NC(=O)NNc1c(Cl)cncc1Cl | -1.1 | 6204 | -7.3 | -9.8 | -7.1 | -4.2 | 5.0
Cc1nnc(SCC(=O)N2c3ccccc3CC2C)s1 (centres undefined) | 9.2 | 3104 | -14.3 | 6.2 | 3.4 | 16.4 | 8.6
Cn1c(-c2ccc3ccccc3n2)[n+](C)c2ccccc21 | 4.2 | 3683 | -19.5 | 5.7 | 10.9 | 5.9 | 3.5
CCCn1c(C)cc(C(=O)COC(=O)CN=C2NS(=O)(=O)c3ccccc32)c1C | 7.6 | 2150 | -2.3 | -15.4 | 7.1 | 12.3 | 9.3
Cc1cc(-c2nnnn2-c2cc(Cl)cc(Cl)c2)no1 | 1.9 | 4798 | -20.8 | 3.3 | 4.2 | 4.0 | 7.8
Cc1cc(=O)oc2cc(OCC(=O)Nc3ccc(S(=O)(=O)N(C)C)cc3)ccc12 | -2.8 | 4507 | 13.7 | 7.4 | 0.3 | 11.0 | -0.3
Cc1onc(-c2ccccc2)c1-c1ccnn1S(=O)(=O)c1ccc(Cl)cc1 | 1.2 | 4288 | -13.6 | 5.7 | -5.3 | 11.6 | 3.5
O=C(/C=C/c1ccco1)NC(=S)Nc1ccccn1 | 1.6 | 9973 | -39.5 | 12.0 | 35.0 | 4.1 | 2.7
CC(C)(C)OC(=O)NCCCCC(NC(=O)c1nc[nH]c1C(=O)N1CCN(C(=O)OC(C)(C)C)CC1)C(=O)OC(C)(C)C (centres undefined) | 7.3 | · | · | · | 4.2 | 1.7 | -2.5
CC(=O)Nc1ccc(/C=C/c2nc3ccccc3o2)cc1 | 6.3 | 3712 | -103.8 | 3.8 | -0.3 | 6.6 | -3.0
Cc1ccc(NC(=O)NNc2cccc(Cl)n2)cc1 | 2.5 | 4342 | -34.2 | -13.5 | -0.4 | -10.8 | -1.6
CCc1nn(CC(=O)NCCCc2ccccc2)c(=O)c2cc3c(OC)cccc3n12 | 1.1 | 5438 | -10.9 | 0.0 | -4.9 | 6.0 | 6.4
Cc1onc(-c2ccccc2)c1C(=O)NC(=S)NNC(=O)c1cc(-c2ccc(F)cc2)n[nH]1 | 13.1 | · | -10.7 | 2.6 | -5.1 | 7.0 | 11.4
COc1nccnc1NS(=O)(=O)c1ccc(N/C=C2\CCCCC2=O)cc1 | · | 4802 | -16.3 | -0.5 | · | · | ·
CNC(=S)N1CCC(NC(=O)C23CC4CC(CC(C4)C2)C3)CC1 | 5.6 | 3923 | -24.8 | -2.1 | 4.8 | 8.2 | -1.8
COCCn1c(SCC(=O)Nc2cc(C(C)(C)C)nn2-c2ccccc2)nc2ccccc2c1=O | 4.7 | 2077 | -30.0 | 0.7 | 1.5 | -6.4 | 2.4
N#CCCN(C(=O)COC(=O)c1cc(=O)c2ccccc2o1)c1ccccc1 | 0.7 | 3336 | -18.7 | · | 2.5 | -6.1 | -0.7
Cc1ccc(/C=N/Nc2nc(N3CCCCC3)nc(N3CCCCC3)n2)o1 | · | 2210 | -9.3 | 4.4 | · | · | ·
CC(=O)Nc1ccccc1NC(=O)C/C(C)=N/NC(=O)c1cccnc1 | · | 3740 | -22.6 | -1.9 | · | · | ·
COCCN(C(=O)COC(=O)CCC(=O)c1ccc(Cl)cc1)c1c(N)n(Cc2ccccc2)c(=O)[nH]c1=O | -1.7 | 4748 | -18.7 | -12.2 | 1.3 | 0.4 | -1.0
CC1=C(C(=O)OCc2ccccc2)C(c2ccc(N(C)C)cc2)NC(=O)N1 (centres undefined) | -0.8 | 8000 | -20.6 | 0.0 | -4.0 | 3.2 | -4.0
Cc1ccc(S(=O)(=O)N(C)C)cc1NC(=O)C(C)Sc1ccccc1 (centres undefined) | 2.0 | 4468 | -22.3 | 0.3 | 1.5 | 16.7 | 9.9
C[N+]1(CC(=O)OCCCc2ccccc2)CCCC1 | -0.1 | 2653 | -8.3 | -1.2 | 1.7 | -13.7 | -0.3
C=CCN(c1ccccc1OC)S(=O)(=O)c1cccc(C(=O)OCC(=O)N2CC(C)OC(C)C2)c1 (centres undefined) | 4.9 | 6229 | -15.1 | · | 6.6 | 7.6 | 5.1
CC1CN(C(C)CO)C(=O)c2cc(NC(=O)NC3CCCCC3)ccc2OC1CN(C)C(=O)NC1CCCCC1 (centres undefined) | -2.4 | · | · | · | -8.1 | -4.8 | 2.2

(continued)
SMILES | RN4220 kill | Autofluor counter | PrP 5UTR inh | BJeLR lethal | ugtP null kill | Mtb hypoxia inh | Mtb hypoxia inh growth
C=CCn1c(=NC(=O)c2sc3ccccc3c2Cl)sc2cc(S(N)(=O)=O)ccc21 | · | 10190 | -27.5 | -5.7 | · | · | ·
O=[N+]([O-])c1ccc(CSc2ccc(S(=O)(=O)N3CCCC3)cn2)cc1 | 1.1 | 3814 | -6.1 | · | 0.5 | 8.0 | 0.6
CCN1C/C(=C/c2cccc([N+](=O)[O-])c2)C(=O)/C(=C/c2cccc([N+](=O)[O-])c2)C1 | 4.0 | 7154 | 66.5* | · | -3.3 | 18.5 | 24.3
O=C(O)c1ccccc1C(=O)Nc1ccc(S(=O)(=O)N2CCCC2)cc1 | -1.5 | 3048 | 8.4 | -3.7 | 0.3 | 3.8 | -0.8
CC(C)NC(=O)NC1C2CC3CC(C2)CC1C3 (centres undefined) | -0.3 | 4646 | -7.6 | 4.0 | 2.9 | · | ·
CCOC(=O)c1cc2c(c(CSc3nc4ccccc4c(=O)n3Cc3ccco3)c1)OCOC2 | 2.0 | 20266* | -2.6 | · | 11.5 | -0.8 | 2.2
CC(C)CNC(=O)C(=O)NCC1OCCN1S(=O)(=O)c1cccs1 (centres undefined) | -2.3 | 6315 | -31.7 | -2.6 | 2.2 | 2.2 | -2.9
O=C(O)[C@H](Cc1ccccc1)Nc1ccc([N+](=O)[O-])cn1 | -2.0 | 3180 | -20.1 | 8.6 | 12.8 | 15.2 | -3.3
CCc1ccc(S(=O)(=O)NCCc2csc(-c3ccccc3)n2)s1 | 19.9 | 10559 | -46.3 | 5.4 | 2.9 | 14.2 | 11.5
CCOc1cc([N+](=O)[O-])cc(/C=C2/NC(=O)N(Cc3ccccc3F)C2=O)c1O | 20.7 | 4201 | 39.2 | 3.9 | 13.7 | 9.1 | 5.9
Cc1ccc(C(=O)CCC(=O)Nc2cccc(C(F)(F)F)c2)cc1 | -9.8 | 2856 | -10.4 | -2.7 | -12.7 | 9.8 | 7.5
CNc1ccc(S(=O)(=O)NCC(=O)OC(C)C(=O)N(C)Cc2ccccc2)cc1[N+](=O)[O-] (centres undefined) | -0.4 | · | · | · | 13.8 | 4.7 | -6.0
COc1ccc(CC(=O)N2CCC(n3nccc3NC(=O)C3CCOC3)CC2)cc1 (centres undefined) | 0.0 | 4243 | -6.6 | -5.8 | 1.2 | -4.5 | -7.5
O=C(NC(=S)Nc1ccc(F)cc1)c1ccc2c(c1)OCCO2 | 0.6 | 2034 | -40.3 | 2.6 | -3.0 | -1.1 | 10.6
COC(=O)CCc1nc2cc(Cl)ccc2n(Cc2ccccc2)c1=O | -1.8 | 4659 | -33.5 | 1.0 | 13.1 | -1.5 | 0.5
Cc1c(Cl)c([N+](=O)[O-])nn1Cc1ccc(C(=O)NN=Cc2ccccn2)o1 | 2.0 | · | · | · | 11.1 | -0.3 | -3.5
CC(=O)Nc1ncc(Cc2cccc(Cl)c2)s1 | 5.8 | 2544 | 5.3 | 6.9 | 2.2 | 5.4 | 10.0
COc1ccccc1C(=O)Nc1ccc2oc(-c3ccc(F)cc3)nc2c1 | 6.4 | 17405* | -12.0 | 7.0 | -23.5 | -11.4 | -5.8
COc1ccccc1OCc1nnc(SCCN2CCOCC2)o1 | 0.5 | 22558* | -13.4 | 1.3 | -4.3 | -3.2 | -1.3
O=C(/C=C/c1ccccc1)Nc1nnc(-c2ccco2)o1 | -11.0 | 4641 | -1.3 | -3.0 | -2.3 | -13.6 | 2.0
COc1ccc(N(CC(=O)N/N=C(\C)c2ccc(OC)c(OC)c2)S(=O)(=O)c2ccccc2)cc1 | · | 3694 | -5.3 | 6.2 | · | · | ·
CC(=O)Nc1ccc(C(=O)OCC(=O)N2CC3(C)CC2CC(C)(C)C3)cc1 (centres undefined) | 2.3 | 3931 | -0.2 | · | 2.1 | 0.7 | 7.5
O=C(CSc1nnc(COc2ccccc2Cl)o1)NC(=O)NC1CCCC1 | 10.4 | 9640 | -13.6 | -11.3 | -25.0 | 1.0 | 3.8
CCOC(=O)c1cnn(CCOC(=O)c2ccc(OC)cc2)c1NC(=O)c1ccc(OC)cc1 | 3.3 | 2156 | -11.7 | -4.7 | -0.3 | 8.8 | 3.3
O=C(Nc1cc(S(=O)(=O)N2CCCCC2)ccc1N1CCOCC1)c1cc(=O)[nH]c2ccccc12 | 2.2 | 4241 | · | 24.6 | 9.6 | -4.0 | -1.7

Next section.
SMILES | RN4220 kill | Autofluor counter | PrP 5UTR inh | BJeLR lethal | ugtP null kill | Mtb hypoxia inh | Mtb hypoxia inh growth
Cn1c(O)c(C(=N)COc2ccccc2)c(=O)n(C)c1=O | 5.2 | 9918 | -22.1 | 15.2 | 0.0 | 8.1 | 6.4
CC(=O)N1c2ccc(S(=O)(=O)N3CCC(C(=O)NC4CCCCC4C)CC3)cc2CC1C (centres undefined) | 3.6 | 5777 | -13.3 | 4.7 | -2.7 | -5.6 | 1.4
CN(Cc1ccccc1)C(=O)CSc1nnc(-c2ccco2)n1-c1ccccc1 | 6.0 | 19956* | -10.5 | -4.2 | 1.9 | 8.7 | 4.3
CC1CCC(C(C)C)C(=O)/C1=C/c1ccc(N)cc1 (centres undefined) | -2.9 | 4101 | · | 3.0 | 20.1 | 10.2 | 9.9
COc1ccccc1C(=O)N1CCN(c2ccc(N3CCOCC3)nn2)CC1 | 2.1 | 5855 | -6.0 | -0.8 | 5.8 | 0.9 | -0.5
Cc1cccc2sc(NNC(=O)C3=COCCO3)nc12 | -1.5 | 3405 | -11.7 | -10.6 | 5.9 | 2.8 | 9.0
O=C(CSc1ccc(-c2ccccn2)nn1)N1CCc2ccccc21 | 4.1 | 4216 | -6.4 | 2.3 | -1.6 | 8.0 | -0.6
CC(CSc1ccc(Br)cc1)CN1CCC(O)CCC1=O (centres undefined) | 11.8 | · | · | · | 9.5 | 13.6 | 8.5
COC(=O)c1sc(NC(=O)COc2ccc(OC)cc2)nc1C | 9.0 | 3471 | -17.0 | -2.4 | -0.9 | 7.0 | 6.7
CCCCn1c(O)c(/C=N/N2CCOCC2)c(=O)[nH]c1=S | 3.6 | 3231 | 6.8 | 5.2 | 5.8 | -2.8 | -5.5
CCOC(=O)CCCNC(=O)CN1CCC(c2nc3ccccc3s2)CC1 | 4.9 | 3370 | -13.6 | -4.3 | 3.0 | 1.1 | -8.9
N#Cc1cc2sc3nc4ccccc4n3c2cc1C#N | 6.5 | · | · | -6.6 | 11.5 | 1.2 | 0.0
COc1ccc(C(=O)Nc2ccccc2C(=O)NN=Cc2ccccn2)cc1OC | 2.6 | · | · | · | 8.0 | -7.3 | 6.5
Nc1nonc1NC(=O)CSc1ncccc1C(=O)O | 1.8 | 8157 | -20.2 | -5.2 | 0.6 | 9.8 | -2.5
